D2 agonist: Beta-Arrestin HTS for Positive Allosteric Modulators of the Human D2 Dopamine Receptor: Agonists | D(2) dopamine receptor (Homo sapiens), P14416 | DiscoveRx PathHunter D2 beta-arrestin, luminescence, 90 min; 100% = 57 uM dopamine signal | activation, % (concentration not given with the values) | 0.084% of 360,000 active | AID 624465, 2012; in the data active = activation above about 40%; inconclusive = about 15% to 40%; inactive = below about 15%; also: compound concentration not given in the record; the text of the record calls up to 30% inactive
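DiscoveRx PathHunter D2 beta-arrestin cells (2,100/well) attached overnight, then compound-stimulated 90 min at 37 C in HBSS/10 mM HEPES/0.1% Tween-20 buffer; beta-galactosidase complementation read by luminescence after 1 h at ambient temperature. Dopamine 57 uM final (EC100) as control.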
Six1-Eya2 blk: qHTS Assay for Inhibitors of the Six1/Eya2 Interaction; Homeobox protein SIX1 (Homo sapiens) + Protein phosphatase EYA2 (Homo sapiens), …; AlphaScreen GST-Six1/His-Eya2 binding, biochemical; active compounds read low; control for the full effect not named in the record; activity change, % (no concentration beside the values); 0.56% of 360,000 active; AID 651725, 2012; in the data active = activity change below about -65%; inconclusive = about -30% to -65%; inactive = above about -30%; also: % is scaled to controls: 0 for no effect and ±100 for the full control effect
Target sequence (O00167 whole entry, looked up): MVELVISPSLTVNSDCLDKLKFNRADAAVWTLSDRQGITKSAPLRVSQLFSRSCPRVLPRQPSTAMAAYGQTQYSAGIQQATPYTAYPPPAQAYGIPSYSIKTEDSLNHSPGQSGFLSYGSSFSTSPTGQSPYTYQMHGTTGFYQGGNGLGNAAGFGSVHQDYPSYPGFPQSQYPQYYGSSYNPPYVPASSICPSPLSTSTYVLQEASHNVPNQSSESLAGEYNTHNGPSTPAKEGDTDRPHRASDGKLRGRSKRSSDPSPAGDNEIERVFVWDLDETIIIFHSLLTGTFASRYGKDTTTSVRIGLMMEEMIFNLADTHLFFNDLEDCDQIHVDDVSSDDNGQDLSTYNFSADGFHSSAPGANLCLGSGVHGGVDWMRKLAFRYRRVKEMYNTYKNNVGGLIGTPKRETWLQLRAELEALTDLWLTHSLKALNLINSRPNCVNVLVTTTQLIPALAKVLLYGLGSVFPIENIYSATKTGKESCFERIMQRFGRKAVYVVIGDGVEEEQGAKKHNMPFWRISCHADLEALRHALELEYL
Target sequence (Q15475 whole entry, looked up): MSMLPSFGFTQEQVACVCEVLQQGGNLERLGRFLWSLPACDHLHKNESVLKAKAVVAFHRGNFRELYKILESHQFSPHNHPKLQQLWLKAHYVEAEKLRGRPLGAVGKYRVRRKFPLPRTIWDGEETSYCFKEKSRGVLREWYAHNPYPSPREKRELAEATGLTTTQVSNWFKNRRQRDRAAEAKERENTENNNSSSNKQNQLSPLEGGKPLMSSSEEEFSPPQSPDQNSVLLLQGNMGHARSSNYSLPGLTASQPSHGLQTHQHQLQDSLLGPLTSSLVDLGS
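Homogeneous AlphaScreen proximity assay pairing GST-Six1 with His-tagged Eya2 (added as 5X mix: 250 nM and 500 nM) in 50 mM Tris pH 8.0, 300 mM NaCl, 1 mM TCEP. Glutathione donor and nickel acceptor beads; 1 h, 37 °C, dark.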
D2 potentiator: Beta-Arrestin HTS for Positive Allosteric Modulators of the Human D2 Dopamine Receptor: Potentiators; AID 624464, 2012; 0.23% of 360,000 active; DiscoveRx D2 beta-arrestin cells, luminescence, 90 min; 100% = 57 uM dopamine signal; potentiation, % (test concentration not listed); active = potentiation of 50% or more; inconclusive = 30% to 50%; inactive = 30% or less;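 also: compound concentration not given in the record; tested on top of an EC20 dose of dopamine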
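PathHunter beta-arrestin assay in DiscoveRx D2 cells. Compounds were added with an EC20 of dopamine (50 nM final) for 90 min at 37 deg C. Luminescence was read 1 h after detection reagent, with 57 uM dopamine as the EC100 control.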
PINK1 modulator: A Quantitative High throughput Screen to Identify Chemical Modulators of PINK1 Expression; PINK1 immunofluorescence, high-content cytometry, 24 h; Potency, µM (top dose mostly 76.6 µM), inactives show at the highest dose activation (PINK1 increase), usual class: activators; 0.2% of 410,000 active; active = well fitted activation curve with a large enough effect; inconclusive = small, poorly fitted or top-dose-only effect; inactive = flat fitted curve, though single readings scatter; cell line not stated here;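 also: potency is read from the fitted curve at half-maximal effect; % of control where 0% means no effect; nearly all actives have a fitted effect of over 65% in size; a mitochondrial uncoupler was the plate control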
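Stable cell line treated 24 h with compounds at 5 concentrations (CCCP controls), then fixed and immunostained for PINK1 plus nuclear and cell stains; PINK1 immunofluorescence quantified by laser-scanning microplate cytometry.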
CtBP-E1A inh: qHTS Assay for Inhibitors of the CtBP/E1A Interaction | activity change, % (concentration not given with the values) | CtBP / adenovirus E1A interaction (AlphaScreen) | 0.49% of 340,000 active | AlphaScreen GST-E1A/His-CtBP binding, 1536-well; active compounds read low; control for the full effect not named in the record; in the data active means activity change below about -65%; inconclusive means about -30% to -65%; inactive means above about -30%; also: % is scaled to controls: 0 for no effect and ±100 for the full control effect
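Steps: dispense buffer (Tris pH 8.0, NaCl 300 mM, TCEP 1 mM, BSA, Tween 20); add 5X protein mix (GST-E1A, His-CtBP, 125 nM each); pin 23 nL compound; 2 h at 37 °C, dark; add 5X beads (50 ug/mL); 1 h; read.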
TRPML1 ag: qHTS for Agonists of the Human Mucolipin Transient Receptor Potential 1 (TRPML1). Mucolipin-1 (Homo sapiens), Q9GZU1. TRPML1-expressing cells, Ca2+ dye fluorescence, FDSS; host cell line not named in the record; reference of the full effect not given here. activation, % (no concentration beside the values). 0.12% of 410,000 active; in the data active = activation above about 50%; inconclusive = about 30% to 50%; inactive = below about 30%; also: 0% is about no effect; the text of the record puts the active cut at 80%
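TRPML1-DL cells, Tet-induced overnight (~16 h, 37 degrees C), loaded 45-90 min at room temperature with Ca8 no-wash calcium dye plus quencher. FDSS fluorescence: 10 s baseline, compound pin-transfer, 110 s agonist read, then EC80 54-4 (4uM final) and 110 s antagonist read.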
* marks the source's active call; other numbers are inactive results; ? = inconclusive; . = no result given; & = joins results of further samples; [ ] = dose if it differs, or a comment.

SMILES	D2 agonist	Six1-Eya2 blk	D2 potentiator	PINK1 modulator	CtBP-E1A inh	TRPML1 ag
O=C(NCc1ccccn1)c1cc2n(n1)C(C(F)(F)F)CC(c1ccco1)N2 (configuration not stated)	1.5	-1.6	-3.5	-0.5%	-2.0	2.1
COc1ccc(CN(C)C(=O)COC(=O)c2c(C)nn(-c3ccc(F)cc3)c2Cl)cc1	-2.0	2.4	-0.1	0.9%	.	2.6
COc1ccc(CNC(=O)NCc2ccc(OC)c(OC)c2)cc1OC	-4.5	1.9	0.6	0.1%	2.7	-0.5
COc1ccc(N=CC2=C(O)c3ccccc3C2=O)cc1	-3.5	1.1	-2.4	-0.9%	2.3	0.3
CCOC(=O)CSc1nc(=O)n2ccccc2n1	3.2	-0.7	-6.1	2.1%	-17.3	-0.1
CC(C)(C)NC(=O)C(c1ccccc1)N(Cc1ccco1)C(=O)c1csnn1 (configuration not stated)	-3.3	-0.3	-9.7	-0.6%	-1.8	-0.3
CCC(=O)Nc1ccc(-c2nnc(SCc3ccc(C(=O)Nc4nccs4)cc3)n2CC)cc1	-2.9	-25.2	-1.5	1.8%	-22.1	-0.7
CCC(=O)OC1(C(C)=O)CCC2C3CCC4=CC(=O)CCC4(C)C3CCC21C (configuration not stated)	-0.8	8.8	-6.4	11.7%	31.1	1.5
Cc1cccc(C(=O)N2CCN(c3ccccn3)CC2)c1	0.9	-1.0	-9.7	-0.4%[38.3 µM]	19.8	2.4
CCCCc1c(O)nc(SCC(=O)Nc2cccc3ccccc23)n(-c2ccccc2OC)c1=O	-2.6	-0.4	-8.8	1.7%	.	5.0
O=C(NNC(=S)NCc1ccccc1)c1ccccc1OC(F)F	-6.5	4.1	-22.9	2.5%	9.1	-0.1
COc1ccc(CN2CCN(C(=O)c3cc(OC)c(OC)c(OC)c3)CC2)cc1OC	-3.1	-2.0	-3.9	-0.5%[38.3 µM]	-2.9	-0.2
CCO/N=C(\N)c1[nH]ncc1Br	-6.2	2.3	-0.9	-0.8%	.	0.7
Cc1ccc(C(C(=O)NC2CCCC2)N(CCCO)C(=O)Cn2nnc(-c3ccc(C)o3)n2)cc1 (configuration not stated)	-3.4	8.4	-8.3	0.4%	-1.5	0.3
C=COC(=O)c1sc2nc(C)cc(C)c2c1N	-4.7	9.6	0.9	4.0%	21.5	-0.9
CCCC(O)(c1ccc(Br)cc1)C(CN1CCOCC1)c1ccc(Cl)cc1 (configuration not stated)	-1.5	0.5	-2.7	12.5%	-4.7	1.1
CNC[C@@H]1Oc2ccc(NS(=O)(=O)c3ccc(Cl)cc3)cc2C(=O)N([C@H](C)CO)C[C@@H]1C	-2.4	0.3	-0.7	2.4%	6.6	-0.8
COc1ccc(NC(=O)CNS(=O)(=O)c2ccc(Cl)cc2)cc1OC	-8.7	5.2	-6.9	1.4%	-1.1	-1.1
CN(C)c1ccc(C(=O)OCC(=O)Nc2ccc(S(N)(=O)=O)cc2)cc1	1.0	5.0	-2.0	3.8%	15.1	-0.6
Cc1cc(C)c2[nH]c(=O)c(CN(CC3CCCO3)C(=S)Nc3ccccc3)cc2c1 (configuration not stated)	-0.2	-4.9	-1.2	?	9.6	-0.5
CC(=O)Nc1ccc(C23CC4CC(CC(C4)C2)C3)cc1	0.2	2.0	-2.2	4.9%	.	.
O=C(COC(=O)c1ccccc1NC(=O)c1ccccc1)c1cccc([N+](=O)[O-])c1	0.3	1.8	4.2	1.0%	0.6	0.0
CN(C)S(=O)(=O)c1ccc(S(=O)(=O)NCc2ccc3c(c2)OCO3)cc1	3.8	13.3	1.7	-1.7%	-12.9	0.4
CCCNC(=O)/C=C/c1ccc(S(=O)(=O)Nc2ccccc2OC)cc1	5.3	3.3	3.7	-1.3%	5.8	-0.3
Cc1cccc(NC(=O)C2CCN(S(=O)(=O)c3cccs3)CC2)c1	0.1	-4.4	-8.6	-1.7%	4.1	-0.2
More structures follow:
SMILES	D2 agonist	Six1-Eya2 blk	D2 potentiator	PINK1 modulator	CtBP-E1A inh	TRPML1 ag
Cc1nn(-c2ccccc2)nc1C(=O)OCC(=O)N1CCCCC1C (configuration not stated)	-1.5	2.2	1.4	0.0%	-6.1	1.0
O=C(CSc1nnc(SCc2ccccc2Cl)s1)N/N=C/c1c[nH]c2ccccc12	1.3	-1.8	-6.2	4.8%	-5.5	1.5
COc1ccc(Cl)cc1NC(=O)CSc1cccc[n+]1[O-]	-0.9	-7.0	-2.5	-3.0%	-1.6	0.0
O=C1N/C(=N\N=C\c2cccs2)SC1Cc1cccc(Cl)c1 (configuration not stated)	3.9	0.5	-7.7	16.0%	1.4	2.1
CC(C)(C)c1ccc(CNC(=O)C2CCCN2C(=O)Nc2ccccc2)cc1 (configuration not stated)	-3.7	13.8	-3.1	5.0%	5.3	1.4
O=C(C(=S)N1CCOCC1)c1c[nH]c2ccccc12	-1.2	6.5	-0.4	4.4%	-16.6	-0.5
COc1cc(N=Nc2ccccc2C(=O)O)ccc1O	0.1	-20.9	?	1.3%	.	2.8
COc1ccc2nc(SCC(=O)Nc3ccc4[nH]c(=O)[nH]c4c3)[nH]c2c1	1.5	-12.0	-0.7	1.3%	-1.4	0.1
CSCC[C@H](NC(=O)C1CCN(S(=O)(=O)c2ccc(C)cc2C)CC1)c1nc2ccccc2[nH]1	-4.0	-17.6	-26.4	4.4%	-0.9	6.2
O=C(CSC1=NNC(c2ccccn2)S1)Nc1cccc(Cl)c1 (configuration not stated)	?	-89.2*	7.2	10.6%	-96.0*	0.7
Cc1cccc2sc(N(CCCN(C)C)C(=O)c3ccc(Cl)s3)nc12	-5.6	-14.6	-24.0	2.1%&-2.1%	-15.4	-0.3&1.1
CCCCN1C(=O)C(CC(=O)NCCc2ccccn2)CC(C(=O)N(C)C)=C1C (configuration not stated)	-6.1	3.4	-1.2	0.5%	4.4	0.2
Cc1ccc(NC(=O)Cn2ccc([N+](=O)[O-])n2)cc1C	-2.4	6.9	0.6	-1.0%	6.0	0.3
CC(=O)N1CCN(C(=O)c2cc(S(=O)(=O)N3CCN(c4ccccc4)CC3)ccc2Cl)CC1	-4.1	2.5	?	-0.1%	8.0	-0.7
O=C(COC(=O)C1CCCN1C(=O)c1cccs1)Nc1ccc2c(c1)OCO2 (configuration not stated)	0.2	-1.4	-28.4	1.6%	-0.3	-0.4
COc1ccccc1-c1cc(C(F)(F)F)nc(S(=O)(=O)CCCC(=O)NCc2ccc(F)cc2)n1	-9.2	-0.3	-32.6	-1.0%	5.0	-0.6
O=C(NCC1CCCN(C(=O)c2cc(Cl)ccc2F)C1)c1ccc(F)cc1 (configuration not stated)	-4.7	13.7	-8.4	-1.1%	27.8	0.1
CN(C)C(CNC(=O)c1cccc(S(=O)(=O)N(C)C)c1)c1ccccc1 (configuration not stated)	-6.2	-2.7	-37.4	0.1%	2.0	-0.3
O=C(O)c1ccc(/C=N/O)cc1	-2.5	5.6	-0.4	-0.9%	2.4	0.8
CC1(OC(=O)CCc2ccccc2)C(=O)C=C2C=C(c3ccc(C#N)cc3)N(C3CC3)C=C2C1=O (configuration not stated)	7.5	-8.8	11.9	-0.4%	.	-0.1
CC(=O)Nc1ccccc1OCC(=O)NCC(F)(F)F	-5.4	2.4	-5.5	0.0%	.	0.7
O=C1NCC2=C1C(c1ccccc1)Nc1ccccc1N2 (configuration not stated)	0.9	-13.0	4.7	0.0%[38.3 µM]	-10.5	-0.6
Cc1cccc(NC(=O)CN2CCOCC2)c1C	3.2	1.1	1.3	-1.1%	.	.
O=C(Cc1ccc(F)cc1)N1CCC2(CC1)NCCc1[nH]cnc12	4.3	1.2	-5.2	-1.3%	.	-0.2
COCc1nc2ccccc2n1Cc1ccc(Br)cc1	0.4	4.1	-22.1	2.5%	-2.8	-0.7

Just D2 potentiator, TRPML1 ag and CtBP-E1A inh, for some of the entries so far:
SMILES	D2 potentiator	TRPML1 ag	CtBP-E1A inh
Cc1cccc2sc(N(CCCN(C)C)C(=O)c3ccc(Cl)s3)nc12	-24.0	-0.3&1.1	-15.4
CCCCN1C(=O)C(CC(=O)NCCc2ccccn2)CC(C(=O)N(C)C)=C1C (configuration not stated)	-1.2	0.2	4.4
Cc1ccc(NC(=O)Cn2ccc([N+](=O)[O-])n2)cc1C	0.6	0.3	6.0
CC(=O)N1CCN(C(=O)c2cc(S(=O)(=O)N3CCN(c4ccccc4)CC3)ccc2Cl)CC1	?	-0.7	8.0

Next part.
SMILES	D2 agonist	Six1-Eya2 blk	D2 potentiator	PINK1 modulator	CtBP-E1A inh	TRPML1 ag
CC(C)C[C@@H](CNCC(=O)[C@H](Cc1c[nH]c2ccccc12)NC(=O)c1[nH]cnc1C(=O)N[C@@H](C)CN)NC(=O)c1nc[nH]c1C(=O)N[C@@H](Cc1ccccc1)C(=O)O	-6.5	-6.0	-8.9	1.3%	-13.4	-0.7
CN(CCCC(=O)NC1CC(C)(C)NC(C)(C)C1)S(=O)(=O)c1ccc([N+](=O)[O-])cc1	-0.4	7.5	-4.5	-0.7%	0.2	0.2
Cc1cccc(-n2ncc3c(N4CCOCC4)ncnc32)c1	6.3	-4.1	9.1	-1.7%	-3.1	-1.4
O=C(c1ccc(Cl)nc1)N1CCc2ccccc2C1	-1.6	-0.9	-4.9	0.7%	4.2	-0.3
CN(C)S(=O)(=O)c1cccc(NC(=O)CCc2nc3sc4c(c3c(=O)[nH]2)CCCC4)c1	2.2	-10.8	-4.2	-0.1%	-18.5	1.3
CCC(CC)NC(=O)c1cccc(Oc2ccccc2)c1	-3.8	10.7	-6.0	-1.3%	0.0	-0.1
CC(C)Cn1c(SCC(=O)Nc2cccc(S(N)(=O)=O)c2)nc2ccccc2c1=O	-0.9	8.5	9.5	-0.3%	-14.3	1.7
CCCCSc1nn[nH]n1	0.9	2.5	-8.2	-1.5%[38.3 µM]	-4.1	0.5
O=C(CN1N=C(c2ccccc2)CCC1=O)NCc1ccccc1	-1.6	9.4	-5.6	0.3%	1.3	0.8
O=C(Nc1ccc(CN2CCOCC2)cc1)c1cccc(-c2cc3ccccc3oc2=O)c1	-3.0	-11.1	-3.0	1.6%	-14.7	-0.4
CCCOC(=O)CN1C(=O)c2ccccc2C1=O	-2.8	2.9	-10.4	0.6%	2.7	-0.4
CSc1sc(C(=O)NNC(C)=O)c2c1C=CCC2	-0.8	-0.3	-2.3	-0.2%	-4.2	1.6
Cc1sc2ncnc(OCc3nnc(-c4cccs4)o3)c2c1C	3.0	4.2	5.6	2.6%	-4.2	-0.9
O=C(Oc1nsnc1N1CCOCC1)c1ccccc1	-2.2	6.7	-4.0	.	4.7	-0.1
N#Cc1ccccc1NC(=O)CSc1n[nH]c(-c2ccco2)n1	-5.2	-1.6	-12.7	0.7%	-7.8	0.1

High-throughput results deposited in PubChem BioAssay by National Center for Advancing Translational Sciences (NCATS).
